GALR2 ag – GALR2 receptor agonists, primary screen, cell-based. GALR2-expressing cells, agonist activation read-out. activation, %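 (tested at 5 µM)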. 140,000 tested, 0.48% active. AID 803, 2007;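 active = above mean plus 3 SD of all compounds, about 5% in these data, not always enough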;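 also: 0% = vehicle buffer wells and 100% = reference agonist at full effect; tested in CHO reporter cells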
Target sequence (O43603 whole entry, looked up): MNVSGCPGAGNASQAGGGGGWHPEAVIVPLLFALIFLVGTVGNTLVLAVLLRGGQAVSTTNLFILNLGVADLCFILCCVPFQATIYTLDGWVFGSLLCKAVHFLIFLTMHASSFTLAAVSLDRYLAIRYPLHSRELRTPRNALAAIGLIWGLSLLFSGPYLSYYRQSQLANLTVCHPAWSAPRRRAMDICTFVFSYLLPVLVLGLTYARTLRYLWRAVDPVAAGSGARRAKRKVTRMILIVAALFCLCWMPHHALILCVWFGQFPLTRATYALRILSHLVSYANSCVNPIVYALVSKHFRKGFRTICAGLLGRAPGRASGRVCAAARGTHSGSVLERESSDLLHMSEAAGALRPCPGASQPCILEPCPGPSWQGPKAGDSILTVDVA
RGS16-Gao HTS – modulators of RGS16 binding to Galphao, primary screen, biochemical, human proteins, multiplexed bead flow cytometry | 220,000 tested, 0.38% active | binding response (% of control), % at 10 µM | Regulator of G-protein signaling 16 (Homo sapiens) + Guanine nucleotide-binding protein … | bead-based flow cytometry RGS16-Galphao binding, fluorescence; actives lie on both sides;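 active = below 25% or above 175%, edge rows of some plates excepted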;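 also: Galphao activated by GDP with aluminum fluoride before binding; 100% = wells without compound and 0% = beads without RGS; some results beyond the cut were filed as inactive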
Target sequence (O15492 whole entry, looked up): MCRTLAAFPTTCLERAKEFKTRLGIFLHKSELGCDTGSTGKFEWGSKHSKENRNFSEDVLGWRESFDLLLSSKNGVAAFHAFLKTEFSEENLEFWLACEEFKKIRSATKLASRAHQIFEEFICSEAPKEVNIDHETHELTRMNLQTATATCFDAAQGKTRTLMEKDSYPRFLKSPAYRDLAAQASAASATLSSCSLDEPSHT
Target sequence (P09471 whole entry, looked up): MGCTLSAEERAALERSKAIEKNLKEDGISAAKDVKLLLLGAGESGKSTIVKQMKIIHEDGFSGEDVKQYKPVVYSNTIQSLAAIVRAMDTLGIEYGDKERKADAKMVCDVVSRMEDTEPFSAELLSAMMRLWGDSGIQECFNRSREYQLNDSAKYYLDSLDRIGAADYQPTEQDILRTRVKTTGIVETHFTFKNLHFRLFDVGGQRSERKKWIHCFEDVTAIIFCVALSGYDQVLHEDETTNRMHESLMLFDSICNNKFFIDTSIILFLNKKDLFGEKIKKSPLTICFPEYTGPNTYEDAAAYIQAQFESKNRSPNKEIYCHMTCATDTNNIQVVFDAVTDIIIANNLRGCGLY
PKD1 inh – inhibitors of human PKD1 kinase, biochemical, fluorescence polarization; Serine/threonine-protein kinase D1 (Homo sapiens), Q15139; inhibition, %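 (about 10 µM by stock and volumes)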; PKD1 kinase fluorescence polarization assay; 200,000 tested, 0.056% active;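 active = inhibition of 50% or more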;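 also: controls were vehicle for no effect and a reference inhibitor for full effect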
HSV augment – enhancers of HSV replication in host cells, fold increase, host cell viability; HSV replication augmentation in cells; maximum fold increase; 220,000 tested, 0.005% active; AID 1956, 2009;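 active = peak rise of 1.5-fold or more in the series; inconclusive = self-fluorescent or not available for retest; tested in PC3 cells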;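 also: first round at 10 µM; read as green reporter fluorescence; hits show the peak of a series up to 25 µM; 1 = signal of infected wells without compound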
Insulin prom inh – inhibitors of insulin promoter-driven GFP, primary screen, imaging, TRM-6 cells (human fetal islet line), eGFP reporter, cell count | AID 1273, 2008 | reporter expression induced with tamoxifen | inhibition, % at 2 µM | 130,000 tested, 0.9% active;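 active = inhibition above the mean plus 3 SD, with well images judged a real hit on visual review, cut at about 60% in these data, passing the limit was not always enough; inconclusive = inhibition over the cutoff but images rejected on review; inactive = inhibition not above the cutoff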
Insulin prom inh cell count – recorded beside Insulin prom inh, whose call it bears; normalized cell count, %; measured here: cell count, toxicity; reference of the scale not given here;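 cells exposed to compound for 48 h; stained nuclei by imaging scaled within each plate; lower means fewer cells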
HSV augment primary fold – further read-out of HSV augment, marked with its call; fold increase; compound at 10 µM; measured here: primary screen fold increase 10 uM; tested in PC3 cells;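 GFP signal in the first replicate; 1 = infected wells without compound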
Starred values were filed as active, the others as inactive; i = inactive; ? = inconclusive; / = not tested or not shown.

SMILES	GALR2 ag	RGS16-Gao HTS	PKD1 inh	HSV augment	HSV augment primary fold	Insulin prom inh	Insulin prom inh cell count
CCCN(CCC)S(=O)(=O)c1ccc(C(=O)Nc2nnc(-c3cc(OC)cc(OC)c3)o2)cc1	-0.4	113	-10	/	/	/	/
Cc1ccc([C@@H]2C3COCC=C3C(C#N)=C(N)C2(C#N)C#N)o1 (some centres undefined)	0.5	96	-8	i	1.2	/	/
CC(C)NC(=O)c1sc2c(c1C(=O)Nc1cccnc1)CCCC2	/	101	/	i	0.94	/	/
Cc1ccc(N2C(=O)c3ccc(N)cc3C2=O)cc1C	-2.5	94	14	i	0.94	0	117
CC1(C)CCc2c([nH]c3ccccc3c2=O)O1	/	102	5	i	1.1	/	/
Cc1cc(NC(=O)c2cc(-c3ccccn3)nc3ccccc23)no1	-0.4	105	-6	i	0.83	-33	81
O=C(NCCc1ccccc1)Oc1ccc(Cl)cc1	/	102	/	i	0.98	/	/
CCOC(=O)C(=NCC1CCCO1)NNc1cc(Cl)ccc1Cl (centres undefined)	/	102	/	i	1	/	/
CCn1c(C)nc2c1C(=O)c1ccccc1C2=O	-3.0	95	-9	i	0.61	-54	206
COc1cc(CNCc2ccccn2)ccc1OCc1ccc(Cl)cc1	0.1	105	-6	i	0.83	/	/
CC1NC2(C(=O)N(Cc3ccccc3)c3ccccc32)C2C(=O)N(c3ccccc3)C(=O)C12 (centres undefined)	-1.1	95	-8	i	0.97	/	/
COc1cc(/C=N/NC(=O)C(=O)/C=C2\NC3(CCCC3)Cc3ccccc32)ccc1O	0.6	100	2	i	1.1	/	/
CC(=O)Nc1cc(C(=O)OC(C(=O)c2ccccc2)c2ccccc2)ccc1C (centres undefined)	-2.3	106	4	/	/	14	128
Cc1ccc(OCC(=O)NC2CCCC2)c(C)c1	-1.0	100	-10	i	1	22	72
c1ccc(-c2nnc(N3CCN(c4ccccc4)CC3)nc2-c2ccccc2)cc1	/	98	/	i	1	/	/
CN(C)CCSc1nc(-c2ccccc2)nc2c1CCC2	-0.8	98	3	i	0.97	42	89
CCOC(=O)c1nnc(-c2ccc(C)cc2)nc1Oc1ccc(Cl)cc1Cl	-0.8	98	-3	i	1	21	123
CCN(CC)S(=O)(=O)c1ccc(N=NC2=C(O)CCCC2=O)cc1	-1.5	126	4	i	0.96	/	/
Cc1cc(C)c[n+](-c2nc3ccccc3nc2[N-]S(=O)(=O)c2ccc(Br)s2)c1	0.4	96	6	?	/	-94	88
CNS(=O)(=O)c1cccc(C(=O)Nc2cccc(Cl)c2)c1	-1.4	103	2	i	0.79	7	101
CCn1cc(SCC(=O)Nc2cc(C)on2)c2ccccc21	-1.4	107	0	i	1.2	/	/
COc1ccc(OC)c(CNC(=O)C2CCCN(C(=O)N(C)C)C2)c1 (centres undefined)	-0.7	101	-10	i	0.91	-43	105
Nc1nc(CN2CCCCCC2)nc(Nc2ccccc2)n1	0.1	107	16	i	0.92	89*	40*
COc1ccc(/C=N/OCC(=O)Nc2nc3ccccc3s2)cc1	-3.0	102	6	i	0.93	13	101
CCc1cc2c(=O)c(Oc3ccccc3F)c(C)oc2c(CN(C)C)c1O	-0.1	136	-9	i	0.96	0	106
Cc1occc1C(=O)Nc1nnc(C(F)(F)F)s1	-0.3	99	2	i	1.1	/	/
O=c1c2ccccc2nc2n1C(CBr)CN2 (centres undefined)	/	99	/	i	0.97	/	/
CCC(C)NC(=O)CSc1nnc(-c2ccc(Cl)cc2)n1N (centres undefined)	/	92	-2	i	1	/	/
C/C(CC(=O)Nc1ccc(N(C)C)cc1)=N\NC(=O)c1ccc([N+](=O)[O-])cc1Cl	/	96	6	i	1	/	/
CCCOC(=O)c1c(-c2ccc(C)cc2C)csc1NC(=O)C1C2CCC(O2)C1C(=O)O (centres undefined)	-1.9	93	2	i	0.98	-85	64
COc1ccccc1/C=C/C(=O)c1c2c(c(C)[nH]c1=O)CCCC2	-2.5	107	7	i	0.73	/	/
O=C(NCc1cccnc1)c1ccc(COc2ccc(Cl)cc2)cc1	/	98	5	i	0.9	33	131
N#Cc1c(-c2ccccc2)ccn(Cc2cccc(Cl)c2)c1=O	-1.8	105	22	i	0.93	29	108
O=C1OC(NCc2cccnc2)(c2ccc(Cl)cc2)c2ccccc21 (centres undefined)	/	64	-1	i	1	/	/
CN(C)c1ccc(CNC2CC(C)(C)NC(C)(C)C2)cc1	-3.8	101	3	i	1.1	15	195
COc1ccc(C2CCCN2C(=O)Nc2ccc(F)cc2)cc1OC (centres undefined)	-0.9	100	-9	/	/	40	109
Cc1ccc(NC(=O)C(C)[n+]2ccccc2)cc1[N+](=O)[O-] (centres undefined)	-0.5	102	6	i	0.9	-20	95
COc1ccc(Cn2c(-c3ccco3)nc3c(c(=O)c4ccccc4n3C)c2=O)cc1	/	100	/	i	1	/	/
O=C1C=C(c2cccs2)C[C@H](c2ccccc2)[C@H]1n1nnc([N+](=O)[O-])n1	-0.5	101	-5	i	0.68	-193	8
Cc1ccccc1NC(=O)N1CCCC1C(=O)NCc1cccs1 (centres undefined)	-2.8	98	-6	i	0.96	62	145
CN1CCN(C(=O)c2ccc(N(Cc3ccccc3Cl)S(C)(=O)=O)cc2)CC1	-1.2	106	-6	i	0.98	31	127
CCc1ccccc1OCC(=O)N(CC)CC(=O)NCc1ccc(F)cc1	0.3	88	-4	i	1.1	/	/
COCC(C)NCc1ccccc1C (centres undefined)	-2.0	99	4	i	0.97	/	/
CS(=O)(=O)c1cnc(-c2cccnc2)nc1N	/	101	-1	i	1.1	5	65
CC12CCC(C(=O)Nc3cccc(NC(=O)C45CCC(C)(C(=O)O4)C5(C)C)n3)(OC1=O)C2(C)C	-2.0	95	-3	i	1.2	-25	85
CCCCCCN(C(=O)CCCCCN1C(=O)NC(c2ccc(-c3ccccc3)cc2)C(C(=O)OCc2ccccc2)=C1C)C(C(=O)NCCCC)c1ccc(OCC(=O)OC)cc1 (centres undefined)	-0.8	95	-9	/	/	-5	131
COc1ccccc1C(=O)N/C(=C/c1ccccc1)C(=O)NC(CCSC)C(=O)O (centres undefined)	-2.0	61	-2	i	1	-16	86
CCOC(=O)C1C(c2ccc(OC)cc2)N(C)OC1(O)C(F)(F)F (centres undefined)	/	84	-4	i	1	50	98
O=C(Nc1cccc(O)c1)c1ccccc1[N+](=O)[O-]	/	101	8	i	1	/	/
Cc1nn(-c2ccccc2)c(Cl)c1/C=N/Nc1nncc(=O)[nH]1	/	99	/	i	1.2	/	/
CCC(C(=O)N1CCN(c2cccc(Cl)c2)CC1)c1ccccc1 (centres undefined)	-4.3	-38	-5	i	1.1	/	/
C/C(CC(=O)Nc1ccc(C)c(Cl)c1)=N\NC(=O)c1ccncc1	/	102	-8	i	0.91	-67	112
COc1cccc(Cn2cnc3c(NS(=O)(=O)c4ccc(Cl)cc4)c(C)c(C)cc32)c1	-0.7	44	-3	i	0.96	-88	147
CCC(CCC(=O)Nc1cccc(C(=O)O)c1)C(=O)O (centres undefined)	-1.9	98	5	i	1	-212	117
O=C(O)CCCC(=O)Nc1ccc(Cl)cc1	/	97	-1	i	0.96	-48	34
O=C(C[n+]1cc(-c2ccc(F)cc2)n2c1CCC2)Nc1nc(-c2ccc(F)cc2)cs1	-1.8	98	7	i	1	14	101
O=C(Nc1cccc2cccnc12)C1CCCC1	-0.8	75	-1	i	1.2	53	125
Cc1ccc(OCC(=O)NNC(=O)c2cccnc2)cc1	-0.2	93	-9	i	1.1	-13	77
CCCCC(c1nnnn1C1CCCC1)N1CCN(C2CCCCC2)CC1 (centres undefined)	-1.2	93	-5	i	1	-63	109
C#CCOCCOCCOCCNc1nc(N2CCN(C(=O)[C@H](CCC(=O)O)n3cc(C(N)Cc4ccc(O)cc4)nn3)CC2)nc(N2CCN(C(=O)[C@H](Cc3cc4ccccc4[nH]3)n3cc(C(N)[C@H](C)CC)nn3)CC2)n1 (some centres undefined)	/	111	-1	/	/	/	/

13 entries from above, as a markdown table:
| SMILES | GALR2 ag | RGS16-Gao HTS | PKD1 inh | HSV augment | HSV augment primary fold | Insulin prom inh | Insulin prom inh cell count |
| --- | --- | --- | --- | --- | --- | --- | --- |
| CCOC(=O)C1C(c2ccc(OC)cc2)N(C)OC1(O)C(F)(F)F (centres undefined) | / | 84 | -4 | i | 1 | 50 | 98 |
| O=C(Nc1cccc(O)c1)c1ccccc1[N+](=O)[O-] | / | 101 | 8 | i | 1 | / | / |
| Cc1nn(-c2ccccc2)c(Cl)c1/C=N/Nc1nncc(=O)[nH]1 | / | 99 | / | i | 1.2 | / | / |
| CCC(C(=O)N1CCN(c2cccc(Cl)c2)CC1)c1ccccc1 (centres undefined) | -4.3 | -38 | -5 | i | 1.1 | / | / |
| C/C(CC(=O)Nc1ccc(C)c(Cl)c1)=N\NC(=O)c1ccncc1 | / | 102 | -8 | i | 0.91 | -67 | 112 |
| COc1cccc(Cn2cnc3c(NS(=O)(=O)c4ccc(Cl)cc4)c(C)c(C)cc32)c1 | -0.7 | 44 | -3 | i | 0.96 | -88 | 147 |
| CCC(CCC(=O)Nc1cccc(C(=O)O)c1)C(=O)O (centres undefined) | -1.9 | 98 | 5 | i | 1 | -212 | 117 |
| O=C(O)CCCC(=O)Nc1ccc(Cl)cc1 | / | 97 | -1 | i | 0.96 | -48 | 34 |
| O=C(C[n+]1cc(-c2ccc(F)cc2)n2c1CCC2)Nc1nc(-c2ccc(F)cc2)cs1 | -1.8 | 98 | 7 | i | 1 | 14 | 101 |
| O=C(Nc1cccc2cccnc12)C1CCCC1 | -0.8 | 75 | -1 | i | 1.2 | 53 | 125 |
| Cc1ccc(OCC(=O)NNC(=O)c2cccnc2)cc1 | -0.2 | 93 | -9 | i | 1.1 | -13 | 77 |
| CCCCC(c1nnnn1C1CCCC1)N1CCN(C2CCCCC2)CC1 (centres undefined) | -1.2 | 93 | -5 | i | 1 | -63 | 109 |
| C#CCOCCOCCOCCNc1nc(N2CCN(C(=O)[C@H](CCC(=O)O)n3cc(C(N)Cc4ccc(O)cc4)nn3)CC2)nc(N2CCN(C(=O)[C@H](Cc3cc4ccccc4[nH]3)n3cc(C(N)[C@H](C)CC)nn3)CC2)n1 (some centres undefined) | / | 111 | -1 | / | / | / | / |

The list continues:
SMILES	GALR2 ag	RGS16-Gao HTS	PKD1 inh	HSV augment	HSV augment primary fold	Insulin prom inh	Insulin prom inh cell count
O=C(NCc1ccco1)c1cc(-c2ccncc2)nc2ccccc12	-0.5	105	-20	i	1.1	14	122
COc1cc(C(=O)Sc2ccc(Cl)cc2)cc(OC)c1OC	-3.2	102	-10	i	1.1	/	/
Cc1cccc(N=C2NC(=O)CS2)c1C	-1.6	119	-7	i	0.99	16	112
CS(=O)(=O)c1ccc(Cl)c(NC(=O)Cc2ccccc2F)c1	/	101	-3	i	0.92	/	/
CC(=O)Nc1ccc(/C(C)=N/Nc2nc(N3CCOCC3)nc(N3CCOCC3)n2)cc1	/	113	0	i	0.96	33	116
O=C(NC1CCCCC1)C(c1ccccc1)N(Cc1ccc2c(c1)OCO2)C(=O)c1cnsn1 (centres undefined)	-1.9	/	0	i	1.1	10	145
Cc1cccnc1NC(=O)CSc1nnc(Cc2ccccc2)o1	-1.4	105	4	i	0.91	5	118
O=C(N/N=C/c1cccs1)c1ccc2nc[nH]c2c1	/	101	8	i	1.2	40	101
COc1ccccc1/C=C/C(=O)OCC(=O)Nc1c(F)cccc1F	/	92	-4	i	0.99	/	/
O=C(CC1CCCCC1)Nc1ccc(-c2ccc3nncn3n2)cc1	/	101	4	i	1.1	/	/
N/C(=N\OC(=O)CCC1CCCC1)c1ccc([N+](=O)[O-])cc1	/	107	-6	i	1	44	105
Cn1c(OCc2cccnc2)nc2c1c(=O)n(Cc1ccc(Br)cc1)c(=O)n2C	0.0	108	97*	i	0.87	/	/
CSc1cc(C)n(-c2ccccc2)c(=S)c1C(C)=O	0.0	94	-2	i	0.88	44	93
CN(CCC#N)C(=O)COC(=O)c1ccc(CNS(=O)(=O)c2ccc(F)c(Cl)c2)cc1	-1.1	106	-7	i	0.96	/	/
COc1ccc(C2CCCN2C(=S)Nc2ccccc2C)cc1OC (centres undefined)	/	102	-4	i	0.87	-24	101
FC(F)Sc1nc2ccccc2[nH]1	/	97	/	i	0.94	/	/
CCCn1c(=O)c(/C(N)=N/O)nn(-c2cccc(C(F)(F)F)c2)c1=O	/	101	/	i	1.1	/	/
